Screening results as filed in PubChem BioAssay.
Rango complex inh = inhibitors of Rango-importin beta complex formation | Q14974 | Rango CFP/YFP FRET sensor + importin beta, 45 min | Potency, µM (highest dose often 92.2 µM), without a hit: at the top dose inhibition of complex formation | 340,000 compounds, 0.031% hits | AID 540263; active = rising FRET ratio curve, often small or poorly fitted; inconclusive = mostly compound fluorescence or quenching in the first reads; inactive = flat curves in all reads;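 note: potency is the fitted concentration of half-maximal effect; 0% = DMSO wells and 100% = buffer wells lacking importin beta; nearly all actives have a fitted effect of over 15% in size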
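FRET biosensor (snurportin 1 IBB flanked by EYFP and cerulean), 50 nM, with compound 5 min, then 0.125 microM importin beta in PBS, 1 mM DTT, 0.02% Tween-20, 0.1% BSA. CFP/YFP ratio read after 45 min at room temperature; pre-read flags interference.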
miR-21 FLuc = raises the signal of a miR-21 reporter; AID 2288; 340,000 tested, under 10 active; HeLa miR-21 FLuc reporter, luciferase, 48 h; Potency, µM (doses to about 38.3 µM), for the others: at the highest dose reporter change, positive = more light; active = well fitted rising curve with a large enough effect; inconclusive = small, poorly fitted or top-dose-only effect; inactive = no such curve, though single readings can be large or run the other way;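 note: % of control where 0% means no effect; miR-21 action dims this reporter so a rising signal means less miR-21 action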
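Luminescence from a firefly luciferase reporter carrying a miR-21 binding site downstream, stably expressed under a CMV promoter in HeLa cells that make miR-21 endogenously, reports miRNA modulation after 48 h compound exposure up to approximately 40uM final.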
Rango release inh = inhibitors of RanGTP-induced Rango-importin beta complex dissociation; Biochemical FRET Rango-importin beta, RanGTP-induced dissociation; 340,000 compounds, 0.071% hits; Potency, µM (highest dose often 46.1 µM), without a hit: top-dose activity change, negative = inhibition; AID 540253; active means falling FRET ratio curve, often poorly fitted, with flat reads before Ran was added; inconclusive means other falling curves, or compound fluorescence or quenching; inactive means flat or rising ratio curve;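 note: potency is the fitted concentration of half-maximal effect; % of control where 0% means no effect; nearly all actives have a fitted effect of over 45% in size; -100% = wells without RanGTP and RCC1; the record marks most hits as doubtful in a second field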
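Rango/importin beta premix (0.1/0.25 uM final), PBS + 1 mM DTT + 0.02% Tween-20 + 0.1% BSA; cpd 5 min RT; FRET pre-read; + RanGTP-RCC1 (0.6 uM Ran, 2 mM GTP, 0.2 uM RCC1); 45 min RT; FRET post-read, ex 430, em 486/530 nm.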
GLA inh pH 4.5 = blocks human alpha-galactosidase A at pH 4.5 | AID 1467 | purified enzyme, 4-MU-alpha-Gal fluorescence, pH 4.5 | activity change, negative = inhibition, % at 105 µM | 230,000 tested, under 10 active | P06280; inconclusive = small, poorly fitted or top-dose-only inhibition, or a rising curve; inactive = flat fitted curve, though single readings scatter; no compound was filed as active;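 note: 0% = full activity with enzyme and -100% = basal without enzyme; dose as in the result columns while the protocol names 77 µM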
Target sequence (P06280 whole entry, looked up): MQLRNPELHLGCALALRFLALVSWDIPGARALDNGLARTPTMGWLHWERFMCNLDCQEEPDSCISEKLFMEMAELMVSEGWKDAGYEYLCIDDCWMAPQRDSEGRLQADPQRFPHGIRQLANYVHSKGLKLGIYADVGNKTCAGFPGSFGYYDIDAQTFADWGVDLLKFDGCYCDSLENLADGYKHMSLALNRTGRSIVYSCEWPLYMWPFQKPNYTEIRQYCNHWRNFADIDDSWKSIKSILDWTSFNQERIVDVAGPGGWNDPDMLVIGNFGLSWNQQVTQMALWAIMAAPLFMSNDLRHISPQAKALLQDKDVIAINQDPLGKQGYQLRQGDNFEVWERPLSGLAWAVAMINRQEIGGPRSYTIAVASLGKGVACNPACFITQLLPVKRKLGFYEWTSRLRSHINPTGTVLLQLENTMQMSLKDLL
An asterisk follows results filed as active; ? = inconclusive; nt = not tested or not shown; [ ] = another dose, or the depositor's remark. Not all compounds are listed; the hit share may differ from the screen's.

Rango release inh	GLA inh pH 4.5	miR-21 FLuc	Compound	Rango complex inh
-4.4%	nt	-0.7%	S=C(NCc1ccccc1)NC1CCSc2ccccc21 (stereo not drawn)	0.6%
1.7%	0.2	14.7%	Cc1ccc(NC(=O)c2cc(C(C)(C)C)nn2Cc2ccccc2)cc1	1.0%
4.1%	5.0	-3.0%	CSc1cccc(NC(=O)C(C)C)c1	2.4%
-1.9%	nt	-5.0%	COc1ccc(N(C(=O)CNC(=O)c2ccco2)C(C(=O)NC2CCCC2)c2ccc(C)o2)cc1 (stereo not drawn)	-0.9%
6.3%	nt	nt	O=C(NCC(c1cccs1)N1CCOCC1)c1ccc(Cl)cc1 (stereo not drawn)	-3.7%
8.0%	-0.5	-5.0%	CC(C)CN(C(=O)CN1CCOCC1)c1c(N)n(CC(C)C)c(=O)[nH]c1=O	-4.1%
-20.8%	-7.1	6.3%	O=C(/C=C/c1ccco1)Nc1scc(-c2ccccc2)c1C(=O)O	?
-6.6%	-22.9	-7.6%	CCOC(=O)C1=C(O)C(=O)N(Cc2cccnc2)C1c1ccc(OC)cc1 (stereo not drawn)	5.3%
28.9%	5.3	-0.5%	Cn1c(N)c(C(=O)COC(=O)CN2C(=O)c3ccccc3C2=O)c(=O)n(C)c1=O	-2.2%
-9.3%	-2.6	1.0%	COc1ccc(/C(C)=N\NC(=O)C(c2ccncc2)N2CCOCC2)cc1 (stereo not drawn)	1.9%
-2.7%	nt	-3.1%	Cc1ccc(NC2CCCN(C(=O)CCN3CCCCO3)C2)cc1C (stereo not drawn)	-2.2%
3.9%	-6.6	1.6%	c1ccc(-c2noc(-c3cccc4ccccc34)n2)nc1	5.7%
3.3%	-0.3	-0.6%	Cc1ccc(C)c(OCC(=O)Nc2cc(C(=O)O)cc(C(=O)O)c2)c1	-2.2%
?	-7.0	-54.7%	CCOc1ccc(N=C2NC(=O)S/C2=C\c2ccc(N(C)C)cc2)cc1	?
-6.8%	nt	-3.3%	COCC(=O)N1CCC(Oc2ccc(C(=O)NCc3cc(C)no3)cc2)CC1	-2.3%

Continued; it opens with the two that closed the last part.
Rango release inh	GLA inh pH 4.5	miR-21 FLuc	Compound	Rango complex inh
?	-7.0	-54.7%	CCOc1ccc(N=C2NC(=O)S/C2=C\c2ccc(N(C)C)cc2)cc1	?
-6.8%	nt	-3.3%	COCC(=O)N1CCC(Oc2ccc(C(=O)NCc3cc(C)no3)cc2)CC1	-2.3%
0.5%	nt	nt	CCN(CC)C(=O)[C@H]1CC(CC(=O)NCc2ccco2)C(=O)N2CCc3c([nH]c4ccc(OC)cc34)[C@]12C (stereo partly drawn)	-3.2%
?	3.6	0.6%	COc1ccc(/C=C2\SC(=O)N(CC(=O)NCCC(C)C)C2=O)cc1OC	?
-1.0%	nt	nt	CCCC(C)C(=O)Nc1cc(S(=O)(=O)N2CCCCC2)ccc1N1CCOCC1 (stereo not drawn)	1.5%
14.2%	1.8	-5.5%	Cc1c(NC(=O)C2(c3ccccc3)CCOCC2)c(=O)n(-c2ccccc2)n1C	0.0%
9.3%	-9.5	0.1%	CCOc1ccccc1Nc1ncccc1C(=O)N1CCCC1	-2.3%
-13.2%	nt	nt	C/C(=N/NC(=O)c1ccc(C(C)(C)C)cc1)c1ccccn1	-0.6%
23.4%	-0.6	-23.6%	O=C(CSc1nnc(-c2cccc(S(=O)(=O)N3CCCCC3)c2)o1)c1ccc[nH]1	3.7%
-7.7%	nt	-28.5%	O=C(Nc1nccs1)c1ccc(COc2c(F)c(F)cc(F)c2F)cc1	-1.0%
-1.7%	-8.3	4.1%	COc1ccccc1/C=N/NC(=O)c1ccccc1Cl	-1.9%
-8.1%	-0.9	-0.3%	Cc1ccc2nc(Nc3ccccc3O)nc(-c3ccccc3)c2c1	2.7%
6.6%	-4.6	18.7%	CCOc1cc(CNc2ccc(OC)cc2)cc(Br)c1OCC(=O)NC(C)(C)C	-2.8%
4.1%	nt	1.7%	COc1cccc(CN(CC(=O)NCc2ccco2)C(=O)CNS(=O)(=O)c2ccccc2)c1	0.1%
0.0%	nt	-34.2%	O=C(/C=C/c1ccccc1)NC(=S)Nc1ccccc1O	-3.2%
1.5%	-5.1	-38.4%	Nc1ccccc1NC(=O)c1ccccc1N	3.6%
-10.4%	2.4	1.4%	O=C(O)CSc1nnc(CNc2cccc(C(F)(F)F)c2)n1Cc1ccco1	0.7%
-6.9%	-0.6	-8.6%	C=CCNCCOc1ccccc1-c1ccccc1	-0.2%
?	-25.3	0.5%	N#CC1=C(Nc2ccccc2)SC=C(c2ccc(Cl)c(Cl)c2)N=C1N1CCOCC1	?
2.3%	6.8	1.7%	Cc1cc2c(n1-c1ccc(Br)cc1)CC(C)(C)CC2=O	2.1%
-12.5%	-11.3	0.5%	CCCCN(CCCC)S(=O)(=O)c1ccc(OC)c2ncccc12	-1.5%
-18.5%	4.8	13.1%	O=C1CC(c2ccccc2)n2nc(NC(=O)c3ccccn3)nc2N1 (stereo not drawn)	1.4%
7.0%	8.6	4.4%	CCCCC1(C(=O)OCC)CC(CSC(=N)N)OC1=O (stereo not drawn)	-1.4%
9.1%	3.4	2.0%	OCCN1CNC(=S)NC1	1.1%
-27.9%	-13.9	-12.6%	COc1ccccc1Oc1ccc(N/C=C2/CCCC2=O)cc1	?
1.1%	1.0	-42.0%	COc1ccc(NC(=O)Nc2ccc(F)cc2F)cc1	1.3%
16.7%	-1.3	-6.0%	CCOc1ccc(-n2c(Cc3cc(=O)[nH]c(=O)[nH]3)nnc2SCC)cc1	?
-18.7%	1.6	0.5%	N=c1n(-c2ccccc2)c(O)cc(=O)n1-c1ccccc1	-0.3%
-5.3%	-0.2	-1.4%	COc1cc(SC)ccc1C(=O)N1CCN(c2ccccc2)CC1	-0.9%
-18.1%	5.4	1.2%	CC(=O)Nc1ccc(NC(=O)COC(=O)c2ccccn2)cc1	-1.9%
-5.0%	-7.0	-2.1%	COc1ccc(S(=O)(=O)Nc2ccccc2OC)cc1NC(=O)Cc1cccs1	?
0.1%	7.8	-4.0%	CC(C(=O)N1CCCC1)c1ccc([N+](=O)[O-])cc1 (stereo not drawn)	4.4%
7.8%	-20.2	-13.8%	Cc1nc(N)nc(Cl)c1Cc1ccc(Cl)cc1	0.6%
0.1%	-6.3	-9.4%	Cc1ccc(CN(C)CC(=O)Nc2ccc3c(c2)CCC3)cc1	-0.2%
?	-6.6[21.1 µM]	-16.2%	Nc1ccc2c3c(cccc13)C(=O)N(c1ccccc1)C2=O	?
-1.3%	nt	nt	CCCCCCN1C(=O)CC(NC(=O)OCC2c3ccccc3-c3ccccc32)C/C=C\C1C(C)C (stereo not drawn)	-2.4%
-15.8%	-4.7	-4.9%	Cn1c(=O)c2c(SCc3cccc(C(F)(F)F)c3)nc(-c3ccco3)nc2n(C)c1=O	?
-8.3%	nt	-2.5%	O=C(CCN1CCCCC1=O)NC1CCCc2c1cnn2-c1ccccc1F (stereo not drawn)	-0.4%
-7.5%	2.3	-0.6%	CCOC(=O)c1c(C)nc2c(c1-c1cc(OC)c(OC)c(OC)c1)C(=O)c1ccccc1-2	2.6%
12.3%	4.4	-9.5%	O=C(Nc1ccccn1)NC12CC3CC(CC(C3)C1)C2	-0.3%
5.0%	nt	nt	O=C(Cn1ncc(Cl)c(Cl)c1=O)Nc1ccc2c(c1)OCO2	-3.4%
34.6%	-2.1	-4.0%	Cc1nn(-c2ncc(C(F)(F)F)cc2Cl)c(=O)n1-c1ccccc1Cl	-3.5%
5.8%	nt	nt	COC1OC2COC(c3ccccc3)OC2C2OC12 (stereo not drawn)	3.8%
5.5%	nt	-5.6%	C#CCOc1ccccc1CNC1CCN(Cc2ccccc2)CC1	3.4%
-6.8%	nt	nt	Cc1ccc(S(=O)(=O)N2CCN(C(=O)CSC(=S)N3CCCC3)CC2)c(C)c1	-0.7%
5.7%	1.8	-4.9%	O=C(N/N=C1\CCSc2ccc(F)cc21)c1cccnc1	9.3%
1.9%	-9.6	-7.0%	COc1ccc(Cc2nnc(Nc3ccc(C)cc3C)[nH]c2=O)cc1	1.0%
0.9%	nt	-0.1%	O=C(CSc1nc2ccccc2c(=O)[nH]1)Nc1ccc(Br)cc1	0.3%
0.9%	nt	3.6%	CC1=CC=CN2C1=NC(=O)CC2(C)C(=O)N(CC(=O)NC1CCCC1)Cc1ccccc1 (stereo not drawn)	1.8%
1.6%	-3.1	2.1%	CN1CCN(C(=O)c2ccc(CN3CCOCC3)cc2)CC1	0.0%
-5.1%	nt	7.0%	Nc1ncc(Br)cc1S(=O)(=O)NCCC(=O)N1CCN(c2ccccc2)CC1	-1.3%
-1.2%	-9.3	1.2%	O=C(NCc1cc(C(F)(F)F)cc(C(F)(F)F)c1)C1CC(c2c(Cl)cccc2Cl)=NO1 (stereo not drawn)	0.9%
-15.1%	4.9	-0.1%	CC(C)C(=O)NC(NC(=S)Nc1cccc2cccnc12)C(Cl)(Cl)Cl (stereo not drawn)	-0.5%
-12.5%	-3.8	-6.3%	Cc1cccc(NC(=O)c2ccc(S(=O)(=O)N3CCOCC3)cc2)n1	-3.7%
6.2%	nt	nt	CCCCN1C(=O)C(C(=O)OCC)CC2=C1CCCC2=O (stereo not drawn)	-0.6%
2.6%	nt	6.1%	CC1(C)Cc2c(sc3ncnc(NN)c23)CO1	2.3%
-28.2%	-7.7	5.4%	CN(Cc1ccccc1)C(=O)c1[nH]cnc1C(=O)N[C@@H](Cc1ccccc1)C(=O)OCc1ccccc1	5.8%
-7.7%	nt	-7.1%	CC(C)c1ccc(OCC(=O)N(Cc2ccco2)C2CCS(=O)(=O)C2)cc1 (stereo not drawn)	8.7%
12.1%	nt	2.0%	CCOc1ccc(CC(=O)NCC(=O)NCc2cc(=O)n(C)c(=O)n2C)cc1	1.2%
-6.1%	-15.1	-1.7%	CCOC(=O)C1=C(O)C(=O)N(c2ccc(S(N)(=O)=O)cc2)C1c1ccc(OC)cc1 (stereo not drawn)	-0.6%
-5.4%	3.8	0.5%	COc1ccc(NC(=O)CSc2nnc(Cn3cnc4ccccc43)n2C)cc1	3.5%
-0.5%	nt	nt	Cc1ccc(S(=O)(=O)N2CCCCC2)cc1NC(=O)c1ccncc1	-0.9%

Some of these compounds in order of SMILES length, smallest number first.
Rango release inh	GLA inh pH 4.5	miR-21 FLuc	Compound	Rango complex inh
2.6%	nt	6.1%	CC1(C)Cc2c(sc3ncnc(NN)c23)CO1	2.3%
-5.4%	3.8	0.5%	COc1ccc(NC(=O)CSc2nnc(Cn3cnc4ccccc43)n2C)cc1	3.5%
-5.1%	nt	7.0%	Nc1ncc(Br)cc1S(=O)(=O)NCCC(=O)N1CCN(c2ccccc2)CC1	-1.3%

(next part)
Rango release inh	GLA inh pH 4.5	miR-21 FLuc	Compound	Rango complex inh
-8.2%	3.4	-17.2%	CCOC(=O)c1cnc(SCCN2CCOCC2)nc1N	2.0%
-5.4%	7.9	1.1%	COC(=O)CSc1nnc(CNS(=O)(=O)c2ccc(Br)cc2)n1C	2.3%
2.2%	nt	-3.3%	CCOc1ccc(C(=O)NCCN2CCCCC2)c(OCC)c1	-0.3%
43.0%	nt	nt	CCN(C(=O)COC(=O)Cc1c(F)cccc1Cl)c1c(N)n(Cc2ccccc2)c(=O)[nH]c1=O	-2.8%
5.1%	5.9	-13.5%	O=C(Cn1nc2n(c1=O)-c1ccccc1SC2)N/N=C/c1cccnc1	-2.1%
-1.2%	nt	-5.3%	COc1ccc(NC(=O)N2CCCC2C(=O)NC2CCCC2)cc1 (stereo not drawn)	-1.3%
